SARS PLP yeast: inhibitors of SARS-CoV papain-like protease in yeast. 0.19% of 330,000 active. Potency, µM (highest dose often 32.9 µM), for the others: at the top dose activity, positive = growth rescue. S. cerevisiae expressing SARS-CoV PLpro, growth rescue; control for the full effect not named in the record; also: 0% is about no effect; nearly all actives have a fitted effect of over 55% in size; growth read by luminescence after 48 h
MARV entry inh: Marburg virus entry inhibition. AID 540276. Marburg virus pseudotyped entry inhibition, cell reporter; control for the full effect not named in the record; about a third of the inactives were read at about 46 µM. Potency, µM (highest dose often 37.8 µM), for inactives: at the top dose activity change, negative = inhibition, hits mostly inhibitors. 1.8% of 300,000 active; active = well fitted inhibition curve with a large enough effect; inconclusive = small, poorly fitted or top-dose-only effect, or effect the other way; inactive = flat fitted curve, though single readings scatter; tested in HEK293 cells; about a fifth of its hits are not listed in these tables; also: % is scaled to controls: 0 for no effect and ±100 for the full control effect; luciferase read-out
Cruzain Triton: cruzain (T. cruzi) inhibition with detergent; P25779; purified cruzain, Z-FR-AMC fluorescence, 0.01% Triton; 0.43% of 200,000 active; Potency, µM, for the others: max response, negative = inhibition, usual class: inhibitors; active = well fitted curve in the direction sought with a large enough effect; inconclusive = small, poorly fitted or top-dose-only effect, or another doubt; inactive = no such curve, though single readings can be large; an effect the other way counts as inactive or inconclusive;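 also: plate controls were neutral wells for no effect and buffer without enzyme for full effect; nearly all actives have a fitted effect of over 40% in size; top concentration of the series not given in the record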
Target sequence (P25779 123-467 limits assumed): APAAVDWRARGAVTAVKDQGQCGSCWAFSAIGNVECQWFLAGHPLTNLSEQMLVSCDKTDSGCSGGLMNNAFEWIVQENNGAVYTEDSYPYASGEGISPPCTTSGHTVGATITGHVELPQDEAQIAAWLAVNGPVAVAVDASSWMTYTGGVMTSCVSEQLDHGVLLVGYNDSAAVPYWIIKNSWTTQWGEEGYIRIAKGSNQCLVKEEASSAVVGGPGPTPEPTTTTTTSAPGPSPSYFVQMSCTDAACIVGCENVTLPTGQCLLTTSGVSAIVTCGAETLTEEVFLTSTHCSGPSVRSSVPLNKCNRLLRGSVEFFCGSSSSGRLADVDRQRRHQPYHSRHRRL
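Cruzain (1.5 nM) preincubated 15 min at RT with compound in 100 mM sodium acetate pH 5.5, 5 mM DTT, 0.01% Triton X-100. Reaction started with 2 uM Z-FR-AMC; AMC fluorescence (ex 360/em 450 nm) change over 60 s gave rate.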
Lassa entry inh: blocks Lassa virus binding to or entry into cells; Lassa virus pseudotype entry inhibition, cell reporter; control for the full effect not named in the record; Potency, µM (titrated, usually from 37.9 µM), for inactives: at the highest dose activity change, negative = inhibition, actives largely listed as inhibitors; 1.2% of 300,000 active; active means well fitted inhibition curve with a large enough effect; inconclusive means small, poorly fitted or top-dose-only effect, or effect the other way; inactive means flat fitted curve, though single readings scatter; tested in HEK293 cells; also: % is scaled to controls: 0 for no effect and ±100 for the full control effect; nearly all actives have a fitted effect of over 50% in size; luciferase read-out
Cruzain noTriton: blocks cruzain activity in detergent-free assay | P25779 | Potency, µM, without a hit: max response, negative = inhibition, hits mostly inhibitors | 2.3% of 200,000 active | purified cruzain, Z-FR-AMC fluorescence, no detergent; active = well fitted curve in the direction sought with a large enough effect; inconclusive = small, poorly fitted or top-dose-only effect, or another doubt; inactive = no such curve, though single readings can be large; an effect the other way counts as inactive or inconclusive;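 also: plate controls were enzyme without inhibitor for no effect and buffer without enzyme for full effect; nearly all actives have a fitted effect of over 40% in size; top concentration of the series not given in the record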
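Purified cruzain at 1.5 nM, pre-incubated 15 min with compound at room temperature in 100 mM sodium acetate pH 5.5, 5 mM DTT, 0.00005% Triton X-100. Reaction started with 2 uM Z-FR-AMC; AMC fluorescence increase over 60 s gives rate.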
NS1 function inh: inhibitors of influenza NS1 protein function. Potency, µM (series often up to 46.1 µM), without a hit: top-dose activity, positive = more growth. S. cerevisiae slowed by influenza A NS1, growth recovery by OD600. AID 2326. 0.4% of 270,000 active; also: actives are rising curves; nearly all actives have a fitted effect of over 50% in size
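Recovery from NS1-induced slow growth read by OD600 in budding yeast switched to galactose assay medium (pH 6.0, -URA) at 1:100 dilution. Compound 23 nl per well; the matching strain lacking NS1 serves as control.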
2A StopGo: lowers the luciferase signal of an FMDV 2A StopGo reporter. 1.2% of 410,000 active. Potency, µM (titrated, usually from 57.9 µM), for inactives: top-dose signal change, negative = less light. human cells with a luciferase reporter of 2A StopGo recoding; control for the full effect not named in the record; active = well fitted falling curve with a large enough effect; inconclusive = small, poorly fitted or top-dose-only effect; inactive = no such curve, though single readings can be large or run the other way; tested in HEK293T cells; also: % is scaled to controls: 0 for no effect and ±100 for the full control effect; nearly all actives have a fitted effect of over 45% in size; luciferase light after 4 h
RE007 growth inh: less growth of the S. pombe RE007 Vpr strain; S. pombe RE007 Vpr strain, BacTiter-Glo ATP luminescence, 24 h; control for the full effect not named in the record; Potency, µM (highest dose often 92.2 µM), for the others: at the highest dose activity change, negative = less growth; 0.21% of 360,000 active; AID 651644; active = well fitted falling curve with a large enough effect; inconclusive = small, poorly fitted or top-dose-only effect; inactive = no such curve, though single readings can be large or run the other way;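 also: % is scaled to controls: 0 for no effect and ±100 for the full control effect; nearly all actives have a fitted effect of over 50% in size; the assay follows cell death caused by Vpr and the record does not say whether a fall means rescue or toxicity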
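Fission yeast strain RE007, carrying one chromosomally integrated HIV-1 vpr copy, was seeded at OD 0.01 in PMG+AL medium with 23 nL pinned compound. After 24 h at 30 °C and 99% humidity, viability was read by BacTiter-Glo luminescence.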
* hit, by the source's call; ? = inconclusive; . = not tested or not shown; & = joins results of further samples; [ ] = remark or other dose. Unless noted, calls follow the shape of the dose curve; as a rule, active means well fitted rising curve with a large enough effect; inconclusive means small, poorly fitted or top-dose-only effect; inactive means no such curve, though single readings can be large or run the other way. Potency is read from the fitted curve at half-maximal effect.

#	SMILES	SARS PLP yeast	MARV entry inh	Cruzain Triton	Lassa entry inh
1	CSCCC(NC(=O)COc1ccccc1)C(=O)O (configuration not stated)	0%	?	.	-9%[46.1 µM]
2	CCCOc1ccc(-c2nonc2NC(=O)COc2ccc(C)cc2)cc1OCCC	.	?	-0.6%	-15%[46.1 µM]
3	COc1ccc(C(C)NC(=O)C2C(=O)NC3(C)CC2c2ccccc2O3)cc1 (configuration not stated)	2%	-10%	8.2%	-3%
4	O=C(COc1ccc(S(=O)(=O)N2CCOCC2)cc1)Nc1ccccc1F	0%	6%[46.1 µM]	.	5%
5	CN(C)c1cccc2c1c(NC(=O)c1ccc(F)cc1)nn2C	0%	.	.	.
6	CCS(=O)(=O)N1CCc2cc(C(=O)Nc3cc(OC)c(Cl)cc3OC)ccc21	.	-17%[46.1 µM]	-6.5%	18%[46.1 µM]
7	CC1CC(C)CN(S(=O)(=O)c2ccc(NC(=O)C3COc4ccccc4O3)cc2)C1 (configuration not stated)	-12%	.	-6.9%	.
8	Cc1ccc(S(=O)(=O)c2cn(C)c3cc(N4CCN(C)CC4)c(F)cc3c2=O)c(C)c1	7%	.	.	.

#	Cruzain noTriton	NS1 function inh	2A StopGo	RE007 growth inh
1	.	.	4%	9%
2	-1%	.	1%	.
3	0%	1%	-5%	15%
4	.	.	3%	4%
5	.	-5%	-27%	9%
6	-11%	.	0%	.
7	-6%	-154%	-20%	12%
8	.	-18%	12%	-11%

Given with two lines to a compound: entries from further up.
Results follow in this order: SARS PLP yeast | MARV entry inh | Cruzain Triton | Lassa entry inh | Cruzain noTriton | NS1 function inh | 2A StopGo | RE007 growth inh
4) O=C(COc1ccc(S(=O)(=O)N2CCOCC2)cc1)Nc1ccccc1F
    0% | 6%[46.1 µM] | . | 5% | . | . | 3% | 4%
5) CN(C)c1cccc2c1c(NC(=O)c1ccc(F)cc1)nn2C
    0% | . | . | . | . | -5% | -27% | 9%
6) CCS(=O)(=O)N1CCc2cc(C(=O)Nc3cc(OC)c(Cl)cc3OC)ccc21
    . | -17%[46.1 µM] | -6.5% | 18%[46.1 µM] | -11% | . | 0% | .
7) CC1CC(C)CN(S(=O)(=O)c2ccc(NC(=O)C3COc4ccccc4O3)cc2)C1 (configuration not stated)
    -12% | . | -6.9% | . | -6% | -154% | -20% | 12%

New compounds follow:
#	SMILES	SARS PLP yeast	MARV entry inh	Cruzain Triton	Lassa entry inh
9	COc1ccc(C2C3=C(OC(C)=O)c4ccccc4C3=Nc3c2c(=O)n(C)c(=O)n3C)cc1 (configuration not stated)	1%&0%	?	2.2%	0%
10	COc1ccc(C)cc1NC(=O)NNS(=O)(=O)c1ccc(NC(C)=O)cc1	20%	18%	.	-26%
11	COc1ccc(CCN2CC(C(=O)OC(C)C(=O)Nc3ccc(NC(C)=O)cc3)CC2=O)cc1OC (configuration not stated)	.	11%	.	-15%
12	CCCCOc1ccc(CNC(=O)c2cnc3sc(N4CCCC4)nn3c2=O)cc1	.	.	7.6%	-1%[46.1 µM]
13	Cc1cccc(NC(=O)CCNS(=O)(=O)c2ccc3c(c2)CCN3C(=O)C2CC2)c1	.	.	-0.5%	-29%[46.1 µM]
14	CCC(CCC(=O)NNC(=O)Cc1ccc([N+](=O)[O-])cc1)C(=O)O (configuration not stated)	1%	.	.	.
15	CN(C)/C=C/C(=O)c1nn(-c2ccc(F)cc2)ccc1=O	0%	.	.	.
16	COc1ccc(-c2[nH]ncc2CNCCCSC)cc1F	-1%	.	.	.

#	Cruzain noTriton	NS1 function inh	2A StopGo	RE007 growth inh
9	15%	0%&0%	-7%	12%
10	.	-2%	-24%	8%
11	.	.	-2%	-2%
12	1%	.	-15%	.
13	3%	.	-6%	.
14	.	-2%	22%	3%
15	.	3%	-6%	5%
16	.	5%	0%	-11%

Next part:
#	SMILES	SARS PLP yeast	MARV entry inh	Cruzain Triton	Lassa entry inh
17	O=[N+]([O-])c1ccc(N2CCN(S(=O)(=O)c3ccccc3)CC2)cc1NCc1cccnc1	0%	?	-0.3%	?
18	CCCC(C)C(=O)OCC(=O)Nc1c(Br)cc(C)cc1Br (configuration not stated)	-2%	0%	-3.7%	7%
19	Cc1cc(OCCN2CCCCCC2)ccc1[N+](=O)[O-]	-16%	-18%	0.3%	1%
20	CSC(=NC#N)N1CCN(c2ccccc2)CC1	6%	12%	0.1%	11%
21	CCn1cc2nc(SCc3ccccc3F)n(Cc3ccc(C)cc3)c(=O)c2n1	.	.	3.1%	?
22	Fc1ccc(NCc2cccnc2)cc1F	1%	12%	-6.9%	-2%
23	CCOC(=O)c1ccc(NC(=O)N2CCN(C3CCCCC3)CC2)cc1	-3%	?	4.6%	-2%
24	O=C(CCCC(=O)NC1CCCC1)NC1CCCC1	-1%	-5%	-4.6%	9%

#	Cruzain noTriton	NS1 function inh	2A StopGo	RE007 growth inh
17	?	14%	?	1%
18	0%	-16%	-12%	48%
19	-1%	-9%	-7%	-18%
20	-3%	-6%	2%	15%
21	-22%	.	-18%	.
22	-7%	10%	-13%	-13%
23	2%	1%	17%	-8%
24	-9%	-4%	-13%	-8%

The list continues:
#	SMILES	SARS PLP yeast	MARV entry inh	Cruzain Triton	Lassa entry inh
25	O=C(Nc1ccc2oc(-c3ccncc3)nc2c1)c1ccc2c(c1)OCO2	1%	.	.	.
26	CCCCN(c1ccccc1)S(=O)(=O)c1ccc2c(c1)CC(C)N2C(=O)C1CC1 (configuration not stated)	.	.	-3.8%	?
27	Cc1nnc(NC(=O)c2cc(S(=O)(=O)N3CCCCC3)ccc2Cl)s1	-4%	12%	.	21%
28	Cc1ccccc1Nc1nc(-c2sc(NC(=O)c3ccccc3)nc2C)cs1	-4%	5%	-4.8%	.
29	O=C(c1cccc2ccccc12)N1CCN(c2ccc([N+](=O)[O-])c(NCc3ccco3)c2)CC1	-14%	?	-2.6%	1%
30	N=c1c(C(=O)NCCN2CCOCC2)cc2c(=O)n3ccccc3nc2n1Cc1ccc(F)cc1	1%	?	.	?
31	CCCCC(=O)NC(=S)Nc1ccc(S(=O)(=O)N2CCCC2)cc1	8%	9%	-7.4%	-5%
32	O=C(CN1CCC(Cc2ccccc2)CC1)Nc1ccc2c(c1)OCCO2	-1%	5%	3.6%	7%

#	Cruzain noTriton	NS1 function inh	2A StopGo	RE007 growth inh
25	.	?	-7%	-28%
26	-3%	.	-14%	.
27	.	-1%	-17%	-7%
28	13µM*	12%	.	.
29	?	5%	-14%	0%
30	.	4%	-4%	2%
31	-9%	9%	28%	.
32	16%	-6%	2%	9%

Continuation:
#	SMILES	SARS PLP yeast	MARV entry inh	Cruzain Triton	Lassa entry inh
33	CC1(C)Cc2c(sc3nc(NCCN4CCOCC4)n4ncnc4c23)CO1	10%	-27%	-13%	1%
34	O=C(CCC(=O)N1CCOc2ccccc21)N1CCN(c2ccccc2)CC1	2%	.	.	.
35	Cc1cc(C)n(CCOc2nonc2N)n1	0%	14%	6.3%	1%
36	N#Cc1c(NC(=O)CCC(=O)O)sc2c1CCCCC2	0%	13%[46.1 µM]	.	0%
37	COCC(=O)Nc1nc(-c2ccc(-c3ccccc3)cc2)cs1	4%	4%	.	?
38	Cn1c(N)c(C(=O)COC(=O)c2cccc(S(=O)(=O)N3CCOCC3)c2)c(=O)n(C)c1=O	-1%	?	.	-1%
39	O=C(Nc1ccc(Cl)cc1)Nn1cnc2ccccc2c1=O	2%	1%[46.1 µM]	.	5%
40	CC(C)C[C@H](NC(=O)c1nc[nH]c1C(=O)N1CCC(C)CC1)C(=O)OCc1ccccc1	-4%	.	.	.

#	Cruzain noTriton	NS1 function inh	2A StopGo	RE007 growth inh
33	-2%	-9%	-7%	16%
34	.	-9%	-22%	-2%
35	-6%	1%	.	8%
36	.	-5%	11%	0%
37	.	-13%	-2%	1%
38	.	.	-13%	-24%
39	.	-15%	11%	-11%
40	.	?	-20%	-3%

More structures follow.
#	SMILES	SARS PLP yeast	MARV entry inh	Cruzain Triton	Lassa entry inh
41	COc1ccc(-n2c(SCC3CNC(=O)O3)nnc2-c2ccc(Cl)cc2)cc1 (configuration not stated)	7%	-4%	-1.5%	-10%
42	O=C(c1cccc(C(F)(F)F)c1)c1c[nH]c(C(=O)NCC2CCCO2)c1 (configuration not stated)	1%	?	.	-18%
43	CCOC(=O)Cc1csc(NC(=O)CCC(=O)O)n1	1%	5%[46.1 µM]	.	22%[46.1 µM]
44	COCc1cc(C)nc(N2CCN(c3ccccc3)CC2)c1C#N	-11%	?	-4.5%	4%
45	O=C(CNC(=O)C1COc2ccccc2O1)N/N=C/c1cc(Br)c(O)c(Br)c1 (configuration not stated)	1%	-3%[46.1 µM]	.	4%[46.1 µM]
46	COC(=O)c1cc(C#N)c(Oc2ccc(F)cc2)nc1C	-9%	?	0.6%	0%
47	O=C(O)CCN1C(=O)CC2(CCCCC2)C1=O	3%	?	0.5%	6%
48	O=C(NNS(=O)(=O)c1ccc(Br)cc1)NC1CCCCC1	?	17%	-1.3%	-2%
49	Cc1cc(NS(=O)(=O)c2ccc(NC(=S)NC(=O)/C=C/c3ccccc3)cc2)no1	-1%	-4%[46.1 µM]	.	-21%[46.1 µM]
50	CCOC(=O)c1cnn(-c2ccccc2)c1NC(=O)CCl	-1%	?	-3.4%	1%

#	Cruzain noTriton	NS1 function inh	2A StopGo	RE007 growth inh
41	5%	0%	-4%	-7%
42	.	.	-22%	-18%
43	.	-1%	6%	-10%
44	-2%	-101%	?	15%
45	.	9%	-8%	1%
46	-4%	-73%	6%	3%
47	-8%	4%	-13%	5%
48	-27%	-8%	-7%	5%
49	.	15%	13%	1%
50	-7%	?	1%	2%

Screening results deposited in PubChem BioAssay by National Center for Advancing Translational Sciences (NCATS).

Compounds were not picked by outcome; about 4.5% have a hit in one of these screens.
